Sfp inh: inhibitors of Bacillus subtilis Sfp phosphopantetheinyl transferase; 310,000 compounds, 3.5% hits; AID 1490; Biochemical Sfp PPTase activity, qHTS; Potency, µM, for the others: max response, negative = inhibition, usual class: inhibitors; Q9F4F7; active = well fitted inhibition curve with a large enough effect; inconclusive = small, poorly fitted or top-dose-only effect, or another doubt; inactive = no such curve, though single readings can be large or run the other way;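 note: the enzyme is Sfp with the accession as filed and its product quenches rhodamine fluorescence; potency is the fitted concentration of half-maximal effect; 0% = enzyme reaction without inhibitor and -100% = no enzyme wells; top concentration of the series not given in the record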
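Compounds were incubated with enzyme (final 15 nM) for 15 min at room temperature before substrate addition started the reaction. Fluorescence at 525 nm excitation, 598 nm emission was recorded immediately and after 30 minutes.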
gsp antagonist: antagonizes gsp, the McCune-Albright syndrome mutation; gsp-mutant cells, cAMP HTRF, 30 min; control for the full effect not named in the record; Potency, µM (highest dose often 76.9 µM), for the others: at the highest dose activity change, negative = inhibition, usual class: inhibitors; 340,000 compounds, 0.4% hits; active = falling curve of any shape with a large fitted effect; inconclusive = falling curve, mostly with a smaller effect; inactive = flat or rising curve; cell line not stated here;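 note: intracellular cAMP measured with PDE inhibitor Ro 20-1724 present during compound exposure; potency is the fitted concentration of half-maximal effect; % is set by controls: 0 for no effect and ±100 for the full control effect; nearly all actives have a fitted effect of over 65% in size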
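G418-selected cells were plated in DMEM/10% FBS for 16-24 h at 37C, then treated with compounds plus the PDE inhibitor […] (300 uM solution added) for 30 min at 37C. Intracellular cAMP was measured by HTRF after 30 min lysis at room temperature.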
gsp ag: agonists of gsp mutant (McCune-Albright syndrome); gsp mutant cells, cAMP HTRF, 30 min; control for the full effect not named in the record; Potency, µM (titrated, usually from 76.9 µM), inactives show top-dose activation (cAMP increase), most hits filed as activators; 340,000 compounds, 0.13% hits; AID 624287; active = well fitted activation curve with a large enough effect; inconclusive = small, poorly fitted or top-dose-only effect, or another doubt; inactive = no such curve, though single readings can be large or run the other way; cell line not stated here;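 note: phosphodiesterase inhibitor Ro 20-1724 added with compounds to block cAMP breakdown; potency is the fitted concentration of half-maximal effect; nearly all actives have a fitted effect of over 60% in size; about a fifth of the inactives were tested at one dose only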
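Cells in DMEM/10% FBS with G418 were pretreated with compounds in DMSO plus […] (300 uM stock) for 30 min at 37C. cAMP was measured by HTRF (cAMP-d2 plus anti-cAMP antibody-K) after 30 min at room temperature.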
Menin MLL FP FL: inhibitors of human menin-MLL interaction, wild-type MLL peptide | Fluorescence polarization, fluorescein-MLL peptide displacement from menin | FP activity change, % at 61.4 µM | 290,000 tested, under 10 active | AID 1766; inconclusive = falling polarisation curve, or a change in total fluorescence; inactive = total fluorescence flat and polarisation flat or rising; no compound was filed as active; the % refers to the polarisation; negative = inhibition;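 note: % of control where 0% means no effect; inhibitors lower the polarisation; unlabelled MLL peptide was the positive control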
PINK1 modulator: changes PINK1 expression | PINK1 immunofluorescence, high-content cytometry, 24 h | Potency, µM (series often up to 76.6 µM), for inactives: top-dose activation (PINK1 increase), actives largely listed as activators | 410,000 compounds, 0.2% hits; active = well fitted activation curve with a large enough effect; inconclusive = small, poorly fitted or top-dose-only effect; inactive = flat fitted curve, though single readings scatter; cell line not stated here;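 note: potency is the fitted concentration of half-maximal effect; % of control where 0% means no effect; nearly all actives have a fitted effect of over 65% in size; a mitochondrial uncoupler was the plate control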
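Stable cell line treated 24 h with compounds at 5 concentrations (CCCP controls), then fixed and immunostained for PINK1 plus nuclear and cell stains; PINK1 immunofluorescence quantified by laser-scanning microplate cytometry.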
ClpP mod: qHTS Assay for Activators of ClpP; ATP-dependent Clp protease proteolytic subunit (Bacillus subtilis (strain 168)), P80244; purified B. subtilis ClpP, FRET peptide cleavage, 20 min; Potency, µM (titrated, usually from 57.5 µM), for inactives: at the highest dose activity change, negative = active; 340,000 compounds, 1.9% hits; active = well fitted falling curve with a large enough effect; inconclusive = small, poorly fitted or top-dose-only effect; inactive = no such curve, though single readings can be large or run the other way; note: potency is the fitted concentration of half-maximal effect; the source files actives as falling curves though it sought activators and does not explain the sign; nearly all actives have a fitted effect of over 65% in size; many hits overshoot -100%
Target sequence (P80244 whole entry, looked up): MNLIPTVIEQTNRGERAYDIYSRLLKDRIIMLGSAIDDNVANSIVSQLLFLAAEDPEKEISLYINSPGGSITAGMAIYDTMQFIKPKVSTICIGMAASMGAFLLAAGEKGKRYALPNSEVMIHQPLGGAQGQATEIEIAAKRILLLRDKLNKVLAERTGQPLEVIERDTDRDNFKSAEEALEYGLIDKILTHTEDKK
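Purified B. subtilis ClpP, 10 microg/mL final in Tris/HCl pH8 with KCl, BSA, glycerol and Tween-20, cleaved an Abz/nitrotyrosine-quenched decapeptide. Fluorescence (ex 320, em 430) was read at 0 and 20 min at room temperature. Delta was normalized to 5.8 microM ADEP and DMSO/no-enzyme controls.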
D2 ag: agonists of human D2 dopamine receptor (beta-arrestin); DiscoveRx PathHunter D2 beta-arrestin, luminescence, 90 min; 100% = 57 uM dopamine signal; activation, % (test concentration not listed); 360,000 compounds, 0.084% hits; in the data active = activation above about 40%; inconclusive = about 15% to 40%; inactive = below about 15%; note: compound concentration not given in the record; the text of the record calls up to 30% inactive
Target sequence (P14416 whole entry, looked up): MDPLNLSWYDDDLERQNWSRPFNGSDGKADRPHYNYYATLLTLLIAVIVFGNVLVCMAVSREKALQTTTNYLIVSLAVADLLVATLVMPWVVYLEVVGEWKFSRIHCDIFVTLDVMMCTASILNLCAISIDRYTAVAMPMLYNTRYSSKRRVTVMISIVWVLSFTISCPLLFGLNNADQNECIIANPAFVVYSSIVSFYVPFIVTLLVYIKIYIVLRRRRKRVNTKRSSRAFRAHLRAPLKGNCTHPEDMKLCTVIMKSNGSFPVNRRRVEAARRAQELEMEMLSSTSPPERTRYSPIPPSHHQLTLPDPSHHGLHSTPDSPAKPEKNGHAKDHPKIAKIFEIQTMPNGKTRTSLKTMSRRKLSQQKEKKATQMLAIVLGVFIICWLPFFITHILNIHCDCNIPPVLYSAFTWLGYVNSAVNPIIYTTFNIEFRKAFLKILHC
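Agonist mode: compounds alone added to overnight-plated D2 PathHunter cells for 90 min at 37 C, with 57 uM final dopamine (EC100) defining full response. Beta-arrestin recruitment detected by chemiluminescent reagent, read after 1 h at ambient temperature.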
* hit, by the source's call; ? = inconclusive; · = not tested or not shown; & = joins results of further samples; [ ] = another dose, or the depositor's remark. Rows were taken by chance; overall some 5.1% were active at least once.

SMILES	Sfp inh	gsp antagonist	gsp ag	Menin MLL FP FL	PINK1 modulator	ClpP mod	D2 ag
CC(=O)Nc1cccc(NC(=O)CSc2ccc(-c3cccnc3)nn2)c1	-6%	-1%	12%[15.4 µM]	-1.4	-1.2%	·	-0.5
COc1ccc(-c2ccc(NC(=O)c3ccc(Br)o3)cc2)nn1	·	0%	-8%[15.4 µM]	·	-0.5%	0.8%	-1.9
O=C1N=C(N2CCCCC2)S/C1=C\c1ccc(Br)cc1	1%	-26%	-10%	-0.8	0.7%	-1.3%	-2.8
COc1ccc(CCNC(=O)C(=O)NCCOc2ccccc2Cl)cc1OC	4%	2%	-23%	1.5	4.6%	-0.5%	2.6
Cn1cc(CN2CCC(n3nccc3NC(=O)c3ccc4c(c3)OCO4)CC2)cn1	·	·	8%	·	1.1%	0.5%	-1.4
Nc1cc(Br)c(N)c(Br)c1	-1%	-6%	-19%	-4.2	5.6%	2.2%	8.5
CC(C)CC(=O)N1CCN(S(C)(=O)=O)CC1	13%	-2%	8%	4.7	0.7%	0.0%	-3.4
CCOC(=O)C1Sc2ccccc2NC1=O (configuration not stated)	6%	4%	0%	-2.1	0.8%	·	1.3
O=C(NCC1CCCO1)c1cc2c([nH]c3ccccc32)c(-c2cccc(Cl)c2)n1 (configuration not stated)	13%	?	·	5.8	1.5%	4.8%	11
CCC(=O)NC(Nc1c(C)n(C)n(-c2ccccc2)c1=O)C(Cl)(Cl)Cl (configuration not stated)	19%	-1%	15%	-0.6	0.9%	0.1%	-6.4
O=C1OCCC1Sc1nc2ccccc2s1 (configuration not stated)	7%	-4%	1%	1.4	2.2%	-14%	-4.7
COc1ccccc1/C=N/NC(=O)c1nnn(-c2nonc2N)c1CN(C)c1ccccc1	8%	?	-11%	-0.4	0.4%	-19%	2.5
COc1ccc2cc(C(=O)N/N=C/c3cc(OC)c(OC)c(OC)c3)[nH]c2c1	7%	-13%	?	1.4	0.1%	-1.5%	2.0
COc1cc(CN2CCC(N3CCC(C(=O)N4CCCC4)CC3)CC2)cc2c1OCO2	12%	8%	-21%	-0.6	-1.1%	·	-1.5
COc1ccc(-c2ccc3oc(-c4ccc(OC)cc4)c(C#CCCO)c3c2)cc1	·	-7%	6%	·	2.5%	4.7%	-5.4
O=C(Cc1ccccc1)N1CCN(c2ccccc2F)CC1	2%	-2%	-2%[15.4 µM]	2.3	-1.9%	1.0%	6.7
O=Cc1cn(CC(=O)N2CCCc3ccccc32)c2ccccc12	14%	-23%	-3%	4.1	-0.7%	0.8%	-2.5
CCOc1ccc(CC(=O)Nc2sc(Cc3ccccc3)cc2C(N)=O)cc1OCC	28µM*	18%	13%	1.7	0.8%[38.3 µM]	?	0.4
COc1ccc(-c2c(C)cc3oc(=O)cc(-c4ccccc4)c3c2C)cc1F	-27%	-6%	·	-3.0	-0.3%	-14%	-0.1
CC1CCCC(NC(=O)CSc2ncnc3ccccc23)C1C (configuration not stated)	·	-4%	1%	·	-2.0%	-4.3%	-3.9

An excerpt from above, showing only PINK1 modulator and D2 ag:
compound	PINK1 modulator	D2 ag
CC(=O)Nc1cccc(NC(=O)CSc2ccc(-c3cccnc3)nn2)c1	-1.2%	-0.5
COc1ccc(-c2ccc(NC(=O)c3ccc(Br)o3)cc2)nn1	-0.5%	-1.9

(cont.)
SMILES	Sfp inh	gsp antagonist	gsp ag	Menin MLL FP FL	PINK1 modulator	ClpP mod	D2 ag
Cc1ccccc1NC(=O)Cn1c(=O)n(Cc2ccccc2)c(=O)c2c(C)c(C)sc21	-25%	2%	6%	0.4	?	-0.5%&2.0%	-4.2
CC(=O)Nc1cccc(C(=O)N(Cc2ccccc2)Cc2ccccc2)c1	2%	-9%	0%	0.8	1.0%	0.8%	-5.8
CCOc1cc(/C=N/NC(N)=O)cc(Br)c1OCc1ccccc1F	-1%	-21%	4%[15.4 µM]	3.1	5.1%	-2.5%	9.8
COc1ccc(-n2c(Cc3cccn3C)nnc2SCC(=O)NC2CCCCC2)cc1	-1%	-4%	-24%	-0.3	-2.4%	-1.9%	-1.5
O=P(O)(C(O)c1ccccc1)C(O)c1ccccc1 (configuration not stated)	·	8%	-23%	·	0.5%	-4.3%	-1.7
Cn1c(=O)c(C(=O)CN2CC(=O)Nc3ccccc32)c(N)n(Cc2ccccc2)c1=O	13%	12%	1%[15.4 µM]	12	-0.7%	·	-1.3
CC1=C(C(=O)OCc2ccccc2)C(c2ccc3ccccc3c2)NC(=O)N1CCCCCC(=O)O (configuration not stated)	-7%&3%	-16%	24%	3.3&6.6	-1.8%	-5.0%	-0.5
Brc1ccc(OCCOc2cccc3cccnc23)cc1	6%	13%	0%	0.4	9.2%	-20%	0.2
CC(C)CN(C(=O)COc1cccc(-n2cnnn2)c1)C1CCS(=O)(=O)C1 (configuration not stated)	16%	0%	20%[15.4 µM]	·	-0.7%	·	-3.4
COC(=O)CC1C(=O)NCCN1C(=O)CSc1nnc(Nc2ccc(C)cc2)s1 (configuration not stated)	14%	1%	0%	5.0	2.4%	-2.4%	-2.6
CCN(C(=O)CN1CCN(c2ccc(OC)cc2)CC1)c1c(N)n(Cc2ccccc2)c(=O)[nH]c1=O	11%	-7%	0%	0.9	-0.4%	-0.7%	-2.3
O=C1CN(C(=S)Nc2ccccc2Cl)CCN1	45µM*	1%	-1%	-1.0	-0.4%	-2.0%	1.8
CSc1ccc(/C=C/C(=O)Nc2ccccc2)cc1	10%	-3%	5%[15.4 µM]	-1.5	7.4%	-0.4%	-2.2
COc1cc2c(C(=O)O)c(C)n(-c3ccccc3)c2c2ccccc12	15%	-3%	-1%	1.3	0.4%	3.7%	2.7
CC1CCN(C(=O)C2CCCN(S(=O)(=O)c3cccc4nsnc34)C2)CC1 (configuration not stated)	15%	2%	-7%	·	-0.1%	0.6%	2.7
O=C(NN=Cc1ccccc1Cl)c1ccccc1	·	·	1%	·	1.6%	1.8%	-1.0
COc1cc(NC(=O)CCc2c(C)[nH]c(=O)c(C#N)c2C)cc(OC)c1	16%	-8%	-2%[15.4 µM]	-1.7	0.4%	·	-0.1
O=C(C1CCCN1S(=O)(=O)c1cccc2nsnc12)N1CCCCC1 (configuration not stated)	14%	-3%	27%[15.4 µM]	3.2	-1.5%	·	-0.6
COc1cccc(S(=O)(=O)N(C)C[C@@H]2OCc3cnnn3CCCC(=O)N([C@@H](C)CO)C[C@H]2C)c1	·	·	?	·	-1.7%	-1.7%	-3.7
CCCCOc1ccc(/C=C2/Sc3ccccc3C2=O)cc1	-3%	12%	27%	?	1.2%	0.3%	2.8
CN1/C(=C\C(=O)CSc2nncn2C)C(C)(C)c2ccccc21	2%	6%	-9%	-0.3	-1.0%	-4.2%	0.4
Cc1ccc(-n2nc3c(=O)n(CCCC(=O)NCc4ccccc4C)nc(C)c3c2C)cc1	1%	-21%	-39%[inhibitor]	·	2.3%&2.8%	-2.5%&-2.0%	-3.3
O=C(C1CC1)N1CCN(Cc2ccccc2)CC1	·	7%	7%[15.4 µM]	·	0.9%	·	-9.9
CN(Cc1ccccc1)C(=O)c1[nH]cnc1C(=O)Nc1ccccc1	·	-3%	·	·	2.0%	1.2%	-2.2
Cc1ccc(-c2ccc(CO)o2)cc1N	11%	3%	-4%	0.5	-1.0%	·	3.0
CCOc1ccc(-n2c(SCC(=O)Nc3ccc(OC)cc3)nc3sc4c(c3c2=O)CCN(C)C4)cc1	-5%	-12%	-143%[inhibitor]	9.2	1.8%	-7.2%	-2.5
CNc1ccccc1-c1nc2ccccc2n(C)c1=O	4%	-23%	-3%	-0.1	-0.3%	-3.5%	-3.8
Cc1cccc(C)c1OCC(O)CN1CCC(CN2C(=O)c3cccc4cccc(c34)C2=O)CC1 (configuration not stated)	?	-26%	-18%	5.1	-2.2%	-10%	-3.4
Cc1nn(C)c(C(=O)Nc2ccn(Cc3ccccc3F)n2)c1[N+](=O)[O-]	-1%	-3%	?	-0.7	-2.3%[38.3 µM]	0.0%	-1.5
CCN1C(=O)/C(=C2\C=Cc3ccccc3N2CC)SC1=S	-29%	-13%	-11%	18	-5.4%[38.3 µM]	1.3%	-1.1
Cc1cc(C)nc(NC(=O)/C=C/c2ccc(Cl)cc2Cl)c1	-31%	-15%	-22%	-1.4	?	22%	0.4
O=S(=O)(NCC(c1ccco1)N1CCOCC1)c1ccc(Cl)cc1 (configuration not stated)	20%	-4%	-4%	14	1.1%&5.1%	-0.3%&-1.2%	-0.8
CCCCNc1nc(Nc2ccc(C)c(Cl)c2)c2cnn(C)c2n1	12%	-6%	-73%[inhibitor]	-1.7	-4.0%	4.0%	5.0
COc1cccc(CN2CC(C(=O)N(C)CCCC3CCCC3)CCC2=O)c1 (configuration not stated)	13%	-6%	11%	0.9	-1.6%	-0.3%	-2.8
Cc1cc(C)cc(OC(C)c2ccnc3nc(/N=C/N(C)C)nn23)c1 (configuration not stated)	1%	-10%	-7%	3.6	12%[38.3 µM]	28µM*	-2.4
Cc1ccccc1NC(=O)Nc1nc(C(N)C2CCCCC2)cs1 (configuration not stated)	·	·	·	·	0.7%	0.5%	4.4
CCOc1ccc(CCN2C(=S)N([C@@H](CC(C)C)CN3CCCC3CN3C(=S)NC[C@@H]3CC(C)C)C[C@@H]2CC(C)C)cc1 (some centres not stated)	·	6%	·	·	3.1%	-1.2%	-4.5
CC(=O)Nc1cc([N+](=O)[O-])ccc1OCc1ccccc1	·	-21%	-9%	·	-3.9%	-1.1%	-1.5
Cc1ccc(NC(=O)CS(=O)CC(=O)N(c2ccccc2F)C(C)C(=O)NC2CCCC2)cc1 (configuration not stated)	15%	-19%	-3%[15.4 µM]	-2.8	0.7%	-0.2%	-5.1
O=C(O)c1ccc(N2CCc3ccccc32)c([N+](=O)[O-])c1	11%	-14%	-20%	6.6	-0.7%	1.9%	-9.7

Source: PubChem BioAssay (National Center for Advancing Translational Sciences (NCATS))
